Bioassay records: PubChem BioAssay, National Center for Advancing Translational Sciences (NCATS)
ClpP mod – qHTS Assay for Activators of ClpP; purified B. subtilis ClpP, FRET peptide cleavage, 20 min; ATP-dependent Clp protease proteolytic subunit (Bacillus subtilis (strain 168)), P80244; Potency, µM (doses to about 57.5 µM), for inactives: at the highest dose activity change, negative = active; actives 1.9% (n = 340,000); AID 651965, 2013; active = well fitted falling curve with a large enough effect; inconclusive = small, poorly fitted or top-dose-only effect; inactive = no such curve, though single readings can be large or run the other way; also: the source files actives as falling curves though it sought activators and does not explain the sign; nearly all actives have a fitted effect of over 65% in size; many hits overshoot -100%
Target sequence (P80244 whole entry, looked up): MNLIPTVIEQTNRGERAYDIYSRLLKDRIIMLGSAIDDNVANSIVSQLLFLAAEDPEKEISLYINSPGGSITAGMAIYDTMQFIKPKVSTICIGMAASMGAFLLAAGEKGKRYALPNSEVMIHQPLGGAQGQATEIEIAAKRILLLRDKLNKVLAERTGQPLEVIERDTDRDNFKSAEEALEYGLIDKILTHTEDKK
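Buffer: 100 mM Tris/HCl pH8, 100 mM KCl, 0.05% low protease BSA, 2.5% glycerol, 0.01% Tween-20. ClpP 10 microg/mL final; 20 min RT; delta FRET normalized to ADEP and DMSO controls.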
The depositor's hits bear a star; ? = inconclusive; & = joins results of further samples. Potency is read from the fitted curve at half-maximal effect.

SMILES | ClpP mod
CCCCCCCCN1C(=O)[C@H](CC(=O)NCc2ccccc2)C[C@@]2(C(=O)OC)CC(C)(C)CC=C12 | 2.0%
COc1ccc(C(C)=O)cc1CN1C(=O)C(C)ON=C1c1ncccc1C (stereo not drawn) | 2.9%
CN(C)c1ccc(/C=C/c2cc(/C=C/c3ccc(N(C)C)cc3)c3ccccc3n2)cc1 | 1.9%
O=c1[nH][nH]c2c1[C@H](c1ccc(Cl)cc1)O[C@H](C1CCCCC1)C2 | -1.3%
COCCNC(=O)C1CCCN(C(=O)c2cccnc2Oc2ccccc2)CC1 (stereo not drawn) | 0.6%
CC(C)C[C@H]1CN(CCCC[C@H]2CNC(=O)C(=O)N2CCC2CCCCC2)C(=O)C(=O)N1CCc1ccccc1 | 1.6%
CN1CCN(c2ncnc3c2ncn3[C@H]2CN(Cc3ccncc3)C[C@@H](CO)O2)CC1 | -0.4%
O=C(Nc1cccc(C(F)(F)F)c1)C1Cc2c(-c3ccc(Cl)cc3)ccnc2O1 (stereo not drawn) | -22%
Cc1ccccc1C(=O)N(C)[C@H]1C[C@H]2c3[nH]c4ccccc4c3CCN2C[C@H]1[C@H](C)O | -9.5%
O=C(Nc1ccc(F)cc1)N[C@@H]1CC[C@@H](CCn2cc(-c3ccc(F)cc3)nn2)O[C@@H]1CO | -1.5%
Clc1ccc(CNc2ncnc3nc[nH]c23)cc1 | 0.7%&-1.8%
O=C(CN1C(=O)c2ccccc2S1(=O)=O)Nc1cc(S(=O)(=O)N2CCOCC2)ccc1N1CCOCC1 | -4.4%

Shown field by field: 2 of the compounds above.
> CC(C)C[C@H]1CN(CCCC[C@H]2CNC(=O)C(=O)N2CCC2CCCCC2)C(=O)C(=O)N1CCc1ccccc1
- ClpP mod = 1.6%

> CN1CCN(c2ncnc3c2ncn3[C@H]2CN(Cc3ccncc3)C[C@@H](CO)O2)CC1
- ClpP mod = -0.4%

(listing goes on)
SMILES | ClpP mod
CCOC(=O)C(=Cc1ccc(N(C)C)cc1)C(=O)c1ccccc1 | 0.1%
C=C(C)Cn1c2ccc(NC(=O)NCCc3ccccc3)cc2c(=O)n1C | 4.7%
CC(C)NC(=O)C1(C)CCN1C(=O)Cc1ccc(-c2ccccc2)cc1 (stereo not drawn) | -0.2%
COc1cccc(CN2CCC2(C)C(=O)Nc2ccc(Cl)c(Cl)c2)c1F (stereo not drawn) | -1.9%
CC(C)C(N)c1csc(Nc2ccc(S(C)(=O)=O)cc2)n1 (stereo not drawn) | -14%
COCCN1C(=O)CCC1(C)C(=O)NC(C)(C)C (stereo not drawn) | 1.2%
CN(C)c1ccc(C=O)c(O)c1 | -3.1%
COCCNC(=O)C1(C)CCCN(Cc2cc3ccccc3o2)C1 (stereo not drawn) | -1.6%
CCCCCCCCN1C(=O)[C@H](CC(=O)NCCCC)C[C@@]2(C(=O)OC)CC(C)(C)CC=C12 | 2.6%
Cc1ccc(S(=O)(=O)N2C3CCCCC3O[C@H]2CC(=O)Oc2ccccc2)cc1 (stereo partly drawn) | 1.3%
OC(c1ccccc1)c1nc(-c2ccc(F)c(Cl)c2)cs1 (stereo not drawn) | -1.4%
COc1cccc(CNc2nc3cc(-c4ccsc4)sc3c(=O)n2C)c1OC | ?

(cont.)
SMILES | ClpP mod
Cc1ccccc1OCC(=O)NCC(=O)OCc1cccc2ccccc12 | 1.8%
CC1(c2nnnn2Cc2ccccc2)CCC(=O)N1Cc1ccc(F)cc1 (stereo not drawn) | 1.2%
COc1ccc(CCn2c3c(c(=O)[nH]c2=S)CN(c2ccccc2)CN3)cc1OC | -2.5%
COC(=O)[C@@]12C[C@@H](CC(=O)NCCCN3CCCC3=O)C(=O)N(Cc3ccccc3)C1=CCC(C)(C)C2 | -1.1%
CS(=O)(=O)Nc1cccc(NC(=O)C2Cc3c(-c4ccccc4)ccnc3O2)c1 (stereo not drawn) | -6.6%
Nc1sc(-c2ccccc2)cc1C(=O)NCCc1ccc(Cl)cc1 | -20%
CC(=O)Nc1cccc(-c2ccnc3c2CC(C)(C(=O)Nc2cccc(OC(F)(F)F)c2)O3)c1 (stereo not drawn) | -5.0%
CC1(c2nnnn2-c2ccc3c(c2)OCCO3)CCC(=O)N1C1CCN(Cc2ccccc2)CC1 (stereo not drawn) | -0.7%
Cc1ccc(S(=O)(=O)N2C3CCCCC3O[C@H]2CC(=O)OCc2ccccc2)cc1 (stereo partly drawn) | -2.5%
CSCCC(C(=O)NCc1ccccc1)n1c(C2CCN(C(C)=O)CC2)nc2ccccc21 (stereo not drawn) | 0.1%
COc1ccc(Cl)cc1-c1cc(C(=O)NCC2CCCCC2)[nH]n1 | -1.7%
Cc1ccc(S(=O)(=O)N2CCN(c3nc(-c4ccc(CN5CCOCC5)s4)nc4ccccc34)CC2)cc1 | 4.4%

3 structures out of the list, ordered by length of the SMILES, falling:
SMILES | ClpP mod
Cc1ccc(S(=O)(=O)N2CCN(c3nc(-c4ccc(CN5CCOCC5)s4)nc4ccccc34)CC2)cc1 | 4.4%
CSCCC(C(=O)NCc1ccccc1)n1c(C2CCN(C(C)=O)CC2)nc2ccccc21 (stereo not drawn) | 0.1%
Nc1sc(-c2ccccc2)cc1C(=O)NCCc1ccc(Cl)cc1 | -20%

The results go on:
SMILES | ClpP mod
CN(C)Cc1cn(CC[C@@H]2CC[C@@H](NC(=O)Nc3ccccc3F)[C@@H](CO)O2)nn1 | -1.7%
CNc1cc(-c2cccc(C(=O)N3CCOCC3)c2)ncn1 | 4.9%
CC1(C(=O)NS(=O)(=O)c2cccc(F)c2)CCN1C(=O)CC1CCCCC1 (stereo not drawn) | 2.8%
S=c1[nH]c(=S)c2n[nH]nc2[nH]1 | 0.1%
C#CCNC(=O)C[C@@H]1C[C@@]2(C(=O)OCC)CCC=C2N(Cc2cccc3ccccc23)C1=O | -1.6%
CN(Cc1ccc(Cl)cc1)C(=O)c1[nH]c(C(F)(F)F)nc1-c1ccccc1 | -1.0%
c1ccc(COc2ccc(-c3cc4nc(NCCN5CCOCC5)ccn4n3)cc2)cc1 | 4.5%
OC(CN1CCOCC1)c1ccccc1 (stereo not drawn) | 0.9%
CN(C)CCNc1nc(-c2ccccc2CO)c2sccc2n1 | 4.6%
COc1cc2nc(NC3CCN(C)CC3)nc(N3CCCN(C)CC3)c2cc1OC | 3.8%
Cc1cc(C(F)(F)F)c2c(N)c(C(=O)NCc3ccc(Cl)cc3)sc2n1 | -0.9%
COc1ccc(-c2nc3c(C)cc(Br)cn3c2Cc2cccc(F)c2)cc1OC | -9.1%

Next structures
SMILES | ClpP mod
CC(CCl)n1c(=O)c2ccccc2n1C(=O)c1ccccc1 (stereo not drawn) | -0.4%
CC(C)(C)NC(=S)N1CCC2CC1c1cc(-c3ccc4c(c3)OCO4)ccc12 (stereo not drawn) | -9.1%
CC1(C)CC(=O)c2cc(C(=O)NCCc3ccccc3)c(=O)[nH]c2C1 | -18%
CSc1n[nH]c(-c2ccco2)n1 | -0.9%
OC[C@@H]1CN(Cc2ccc(F)cc2)C[C@H](n2cnc3c(N4CCN(c5ccccc5)CC4)ncnc32)O1 | -1.6%
CCOC1=C2CN(S(=O)(=O)c3ccc(C)cc3)[C@H](c3ccccc3)C[C@@H]2N(S(C)(=O)=O)[C@H](c2ccccc2)C1 | 0.9%
NC(c1ccccc1)c1cccs1 (stereo not drawn) | -2.4%
COC(=O)[C@@]12C[C@@H](CC(=O)NCCCCc3ccccc3)C(=O)N(Cc3ccc4c(c3)OCO4)C1=CCC(C)(C)C2 | -1.9%
O=[N+]([O-])c1ccc(NN=C2CC3CCC2C3)c([N+](=O)[O-])c1 (stereo not drawn) | 1.0%
Cc1ccccc1-c1cnc(C(O)c2ccc(F)c(F)c2)[nH]1 (stereo not drawn) | -1.9%
CC1(C(=O)NS(=O)(=O)c2ccc(F)cc2F)CCN1C(=O)Cc1cc(F)ccc1F (stereo not drawn) | 2.5%
CCCC(=O)N1CCC1(C)C(=O)NS(=O)(=O)c1ccccc1Cl (stereo not drawn) | -0.5%

Overlap with the part before: 3 entries, then new ones.
SMILES | ClpP mod
Cc1ccccc1-c1cnc(C(O)c2ccc(F)c(F)c2)[nH]1 (stereo not drawn) | -1.9%
CC1(C(=O)NS(=O)(=O)c2ccc(F)cc2F)CCN1C(=O)Cc1cc(F)ccc1F (stereo not drawn) | 2.5%
CCCC(=O)N1CCC1(C)C(=O)NS(=O)(=O)c1ccccc1Cl (stereo not drawn) | -0.5%
CCC[C@H]1COCCS(=O)(=O)N1Cc1cccc(F)c1 | -0.3%
CC1(C(=O)NS(=O)(=O)c2cccc(OC(F)F)c2)CCN1C(=O)C/C=C/c1ccccc1 (stereo not drawn) | -2.8%
O=C(Nc1ccc(C(O)c2ccccc2)cc1)[C@@H]1O[C@H](CO)[C@H](O)[C@H](O)[C@H]1O (stereo partly drawn) | -1.3%
N#Cc1cccc(NC(=O)c2cc(C3CCCCN3C(=O)CCc3ccccc3)on2)c1 (stereo not drawn) | 0.7%
Cn1c(=O)c2cc(NC(=O)CCc3ccccc3)ccc2n1-c1ccccc1F | 4.1%
COC(=O)C1=CN(c2ccccc2OC)C(N)=C(C#N)C1c1cccc([N+](=O)[O-])c1 (stereo not drawn) | -12%
Brc1ccc(/C=C2\C=Cc3ccccc32)cc1 | 1.3%
CCCNC(=O)c1cc2c(c(-c3cccc(-c4cc5ccccc5o4)c3)n1)[C@H](CCO)N(C(=O)NC(C)C)C2 | 5.2%
O=Cc1ccc(Cl)cc1 | -1.1%
Nc1ccn([C@@H]2O[C@H](C(=O)N[C@H](CO)Cc3ccccc3)[C@@H](O)[C@H]2O)c(=O)n1 | -3.5%
Cc1cccc(C)c1NC(=O)c1csc([C@H]2C[C@H](O)[C@@H](CO)O2)n1 | -1.6%
CC(=O)c1cccc(NC(=O)C(C)OC(=O)c2ccc(S(C)(=O)=O)c([N+](=O)[O-])c2)c1 (stereo not drawn) | -0.6%

(next part)
SMILES | ClpP mod
COc1cc(C(O)c2nc(-c3ccc4ccccc4c3)cs2)ccc1F (stereo not drawn) | -3.4%
COc1ccc(NC(=O)C2(C)CCCN(C(C)C)C2)cc1OC (stereo not drawn) | 1.2%
COC(=O)c1c(N)[nH]c(C(=O)c2ccccc2)c1-c1ccc(Br)cc1 | 2.0%
O=C1c2cc(S(=O)(=O)N3CCOCC3)ccc2-c2ccc(S(=O)(=O)N3CCOCC3)cc21 | 1.3%
CN(C)c1ccc(CCC2C=Cc3ccccc32)cc1 (stereo not drawn) | 4.4%
NNC(=O)c1ccc(C(=O)N(c2ccccc2)c2ccccc2)cc1 | -29%
Cc1cccc(C)c1NC(=O)C1(C)CCC(=O)N1CCCn1ccnc1 (stereo not drawn) | 1.0%
CN(C)N=Nc1ccc(/C=C2\C=Cc3ccccc32)cc1 | 0.7%
Cc1c(C(=O)NCc2cccs2)sc(=O)n1Cc1ccc(S(C)(=O)=O)cc1 | -0.9%
CC(=O)C[n+]1cccc2cc(Cl)ccc21 | ?
CC/C(=C\c1ccccc1)c1cccc2oc3ccccc3c12 | 3.9%
CC(=O)Nc1cc(-c2ccc(N)cc2)cn2c(-c3cccc(C(F)(F)F)c3)cnc12 | -4.6%

Next part:
SMILES | ClpP mod
FC(F)(F)c1ccccc1Cc1c(C2CCCCC2)nc2ccc(Br)cn12 | -1.9%
Cc1ccc(S(=O)(=O)NC(=O)C2(C)CCN2C(=O)C2CCCCC2)cc1 (stereo not drawn) | 0.0%
Cc1ccc(Cn2c(C)c(C(=O)NCc3ccccc3C(F)(F)F)sc2=O)cc1 | -1.3%
COc1ccc(NC(=O)C2(C)Cc3c(-c4ccc(C(N)=O)cc4)ccnc3O2)cc1OC (stereo not drawn) | -1.6%
CCCCCc1c(-c2cccc(Cl)c2)ncn1CCc1ccccc1OC | -4.5%
CC(C)(C)c1ccc(CC(=O)N2CCC2(C)C(=O)NCc2ccc3c(c2)OCO3)cc1 (stereo not drawn) | -0.1%
COC(=O)C1(C(=O)OC)c2ccccc2N(S(=O)(=O)c2ccc(C)cc2)C1CC(C)=O (stereo not drawn) | 0.5%
Cn1nc(C(C)(C)C)cc1NC(=O)C1(C)CCN1C(=O)Cc1ccc(-c2ccccc2)cc1 (stereo not drawn) | -0.2%
O=C(Nc1ccc(OC(F)F)cc1)c1nc(S(=O)(=O)Cc2ccccc2F)ncc1Cl | -0.2%
O=C1c2ccccc2C(c2nc3ccccc3[nH]2)N1c1ccccn1 (stereo not drawn) | -22%
CCCN1CCC(C)(C(=O)Nc2ccccc2Oc2ccccc2)C1 (stereo not drawn) | 2.0%
COc1ccc2sc(-c3ccccc3OC)c(-c3ccc(SC)cc3)c2c1 | ?

Other entries:
SMILES | ClpP mod
CCCCN(CCCC)c1ccc(Cn2ccc3ccccc32)cc1 | -3.6%
CC(O)(c1ccc(F)c(F)c1)c1nc(-c2cccc3cccnc23)cs1 (stereo not drawn) | -22%
Cc1ccccc1NC(=O)c1nc(S(=O)(=O)Cc2ccccc2F)ncc1Cl | ?
COc1ccc(CCC(=O)N2c3ccccc3N=C(c3ccc4c(c3)OCO4)C2C(=O)Nc2ccc(OC)cc2)cc1 (stereo not drawn) | -8.5%
CCC(CO)Nc1ccn2nc(-c3cccc(Cl)c3)cc2n1 (stereo not drawn) | 5.1%
O=c1[nH]c(=S)[nH]c2c1C(c1cccc(C(F)(F)F)c1)OC(CCc1ccccc1)C2 (stereo not drawn) | 1.3%
CCOC(=O)C1=CCN(S(=O)(=O)c2ccc(F)cc2)C1c1ccc(F)cc1 (stereo not drawn) | 0.3%
Cc1nc(C(F)(F)F)ccc1C(=O)N1CCC1(C)C(=O)NS(=O)(=O)c1ccc(Cl)cc1 (stereo not drawn) | 0.8%

Only part of the results is shown, so the mix of outcomes need not match the whole.
